TsaE inh: YjeE (TsaE) inhibition, E. coli; P0AF67; AID 605; Potency, µM; hit rate 0.05% among 71,000; purified YjeE, fluorescence polarisation of a bound ADP probe; active = well fitted falling curve; inconclusive = weaker or top-dose-only fall, or a rising curve; inactive = flat or poorly fitted curve;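 further: top concentration of the series not given in the record; excess ADP was the control for the full effect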
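Fluorescence polarization of a BODIPY Texas Red–ADP probe (2 uM) bound to purified YjeE (10 uM) was read after 15 min room-temperature incubation with compounds. Loss of polarization marks inhibitors; ADP serves as titrated control.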
Bst PK mod: alters activity of Bacillus stearothermophilus pyruvate kinase; Potency, µM; AID 361; hit rate 1.2% among 51,000; partly purified Bacillus stearothermophilus pyruvate kinase, luminescence ATP production; ribose 5-phosphate activator present at AC10; in the data active means potency below about 11 µM; inconclusive means mostly about 12 µM to 25 µM; inactive means weaker than that;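 the screen sought inhibitors and activators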;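 further: potency means the concentration at half of the fitted maximal effect; scaled between full activation by ribose 5 phosphate and full inhibition by luteolin; about four in five hits inhibit and the cells do not say which; series up to 57 µM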
Starred values were filed as active, the others as inactive; i = inactive; · = not tested or not shown.

SMILES	TsaE inh	Bst PK mod
CCOc1ccc(-n2c(SCC(=O)Nc3nccs3)nc3c(c2=O)SCC3)cc1	i	·
CCOCCCNC(=O)C(C)NS(=O)(=O)c1ccc(C)cc1 (centres undefined)	i	>57
Cc1cc(Cl)ccc1OCC(=O)OC(C)C(=O)NC(N)=O (centres undefined)	i	>57
Cc1cc(SCC(=O)Nc2c(C)n(C)n(-c3ccccc3)c2=O)n2c(nc3ccccc32)c1C#N	i	>57
COCCn1c(=O)[nH]c2cc(C(=O)NCCCN3CCN(c4ccc(F)cc4)CC3)ccc2c1=O	i	>57
COc1ccc(-n2c(C)cc(C(=O)Cn3c(NCCO)nc4ccccc43)c2C)cc1	i	>57
Cc1cccc(OCC2=N/C(=C\N(C)C)C(=O)O2)c1	i	·
COc1ncnc2c1oc1nc(C(C)C)c3c(c12)CC(C)(C)OC3	i	>57
Cc1nc2c(cnn2-c2ccc(Cl)cc2)c(=O)n1-c1ccc2c(c1)OCCO2	i	>57
CC(=O)Nc1nc(=S)n(-c2ccccc2)[nH]1	i	·
CS(=O)(=O)Nc1nnc(Cc2ccccc2)s1	i	>57
Cc1cccc(Nc2nc(NC(C)C)nc(Oc3ccc(=O)n(C)n3)n2)c1	i	>57
CN1CCN(c2cc(-c3ccccc3C(F)(F)F)ncn2)CC1	i	·
COc1ccccc1CCn1c(=O)c(-c2cccs2)nc2cncnc21	i	·
O=C(Cn1cnc2c(nnn2Cc2ccccc2)c1=O)NCc1ccco1	i	·
CCc1nnc(NC(=O)CCC(=O)O)s1	i	·
CCc1nnc(NC(=O)CSc2nnc(Cc3ccccc3)o2)s1	i	>57
S=C(Nc1ccccc1)Nc1nccs1	i	·
O=C(O)C1C2CCC(C2)C1C(=O)NCc1ccco1 (centres undefined)	i	>57
O=C(CCC(=O)N(Cc1ccco1)C(C(=O)NC1CCCC1)c1ccncc1)Nc1cccnc1 (centres undefined)	i	>57
O=C(c1ccc2c(c1)OCCO2)N1CCCCC1	i	·
Nc1nonc1-c1noc(-c2ccc(Br)o2)n1	i	>57
COc1ccccc1CNc1ncncc1-c1ccccc1Cl	i	·
Cc1cc(C(F)(F)F)nc(SCC(=O)NC2=NC(=O)C(C)S2)n1 (centres undefined)	i	>57
COc1ccc(CN2CCN(c3ccccn3)CC2)cc1OCc1ccccc1	i	>57

Laid out differently: 5 of the compounds above
Each structure is followed by: TsaE inh | Bst PK mod
CCOCCCNC(=O)C(C)NS(=O)(=O)c1ccc(C)cc1 (centres undefined)
    i | >57
Cc1cc(Cl)ccc1OCC(=O)OC(C)C(=O)NC(N)=O (centres undefined)
    i | >57
Cc1cc(SCC(=O)Nc2c(C)n(C)n(-c3ccccc3)c2=O)n2c(nc3ccccc32)c1C#N
    i | >57
COCCn1c(=O)[nH]c2cc(C(=O)NCCCN3CCN(c4ccc(F)cc4)CC3)ccc2c1=O
    i | >57
COc1ccc(-n2c(C)cc(C(=O)Cn3c(NCCO)nc4ccccc43)c2C)cc1
    i | >57

Remaining list, next part
SMILES	TsaE inh	Bst PK mod
CC(C)(C)n1nnnc1C(c1cccs1)N1CCN(Cc2ccccc2)CC1 (centres undefined)	i	>57
COC(=O)[C@@]1(Cc2ccccc2)[C@H]2c3cc(C(=O)N(C)C)n(CCF)c3C[C@H]2CN1C(=O)c1ccccc1	i	·
CCn1c(SCC(=O)Nc2ccc3c(c2)OCCO3)nnc1-c1ccco1	i	·
Cc1ccc(SCCCn2cncn2)cc1	i	>57
O=C(CSc1nnc(-c2ccc(O)cc2)n1Cc1ccco1)c1cccs1	i	>57
CCn1cc(C(=O)NC2CCCCCC2)c(=O)c2cc(S(=O)(=O)N3CCCCC3)ccc21	i	·
COc1ccc(N2CCN(C(c3cc4ccc(C)cc4[nH]c3=O)c3nnnn3C3CCCC3)CC2)cc1 (centres undefined)	i	>57
CC1CCCC(C)N1C(=O)COc1ccc(-c2nnco2)cc1 (centres undefined)	i	>57
CCOc1ccc(C(=O)c2cccs2)cc1	i	·
COc1ccc(CCNC(=O)c2ccc(=O)[nH]n2)cc1OC	·	>25.6
Cc1noc(C)c1C(=O)Nc1sc2c(c1C(N)=O)CCC2	i	>57
Cc1c(C(=O)OCCN2CCCCC2)oc2ccccc12	i	>57
CC(=O)NC(NC(C)=O)c1ccc(N(C)C)cc1	i	·
CCOc1ccccc1NC(=O)C1CCN(S(=O)(=O)c2cccc3cccnc23)CC1	i	·
COc1cc(S(=O)(=O)N2CCN(C)CC2)c(OC)cc1Br	·	>25.6
COc1cc(C2Nc3cccc4cccc(c34)N2)cc(OC)c1O	i	>57
COC(=O)CNC(=O)C(Cc1c[nH]c2ccccc12)NC(=O)OC(C)(C)C (centres undefined)	i	>57
Cc1nn(-c2ccccc2)c(Cl)c1C1C(C#N)=C(N)Oc2n[nH]c(C)c21 (centres undefined)	i	>57
COc1cc(C2CC(=O)c3c([nH]c(C(=O)OCCOC(C)C)c3C)C2)cc(OC)c1OC (centres undefined)	i	·
O=C1Nc2ccccc2C1(O)Cc1ccncc1 (centres undefined)	i	>57
O=C1C2CCCN2C(c2ccc(F)cc2)N1c1nccs1 (centres undefined)	i	>57
CN1CCN(C(=O)Nc2cccc3ccccc23)CC1	i	>57
Cn1c(=O)c2c(nc(NCCCN3CCOCC3)n2Cc2ccc(Cl)cc2)n(C)c1=O	i	>57
O=C(Nc1nc(-c2ccccn2)cs1)c1ccc(Cl)s1	i	·
COCCn1c(SCc2csc(-c3ccccc3)n2)nc2ccccc21	i	>57
Following part:
SMILES	TsaE inh	Bst PK mod
O=C(CSc1nnc2c3c4c(sc3ncn12)CCCC4)NCc1ccco1	i	>57
Cc1cccc(CNc2cc(-c3cccc(C#N)c3)ncn2)c1	i	·
O=c1oc2c(CN3CCCCC3)c(O)ccc2cc1-c1nc2ccccc2[nH]1	i	·
CCOc1ccc(NCc2nnc(SCC(=O)Nc3cc(C)on3)n2-c2ccc(OC)cc2)cc1	i	>11.4
Cc1ccc2nc(-c3ccccc3)cn2c1	i	0.391*
O=C(Nc1cccnc1)Nc1ccccc1Cl	i	·
CCCNC(=O)CS(=O)(=O)Cc1nc(-c2cccc(OC)c2)oc1C	i	·
CC(=O)Nc1ccc(NS(=O)(=O)c2ccc(Cl)c(C(=O)O)c2)cc1	i	>57
Cc1ccccc1Cc1c(C)nc2c(C(=O)NCc3ccco3)cnn2c1C	i	>57
Clc1ccc(Cl)c(-c2nn3c(COc4ccccc4)nnc3s2)c1	i	>57
COc1ccc(OC)c(-n2cnc3cc(C(=O)O)ccc32)c1	i	>57
COC(=O)C1=CN(CC2CCCO2)C=C(C(=O)OC)C1c1ccsc1 (centres undefined)	i	·
O=C(NC1CCCCCC1)C1CCN(S(=O)(=O)c2ccccc2)CC1	i	>57
O=C(O)c1cccc(-n2nnnc2SCc2ccccn2)c1	i	>57
Cc1cc(C)cc(NC(=O)c2cc(S(=O)(=O)NCc3ccco3)ccc2F)c1	i	>57
Cc1ccc2[nH]c(=O)c(CN(CCc3ccccc3)C(=O)N3CCOCC3)cc2c1	i	>57
COc1cccc2sc(N(C)c3ccccc3)nc12	i	8.14*
OCC12COC(c3ccccc3)N1C(c1ccccc1)OC2 (centres undefined)	i	>57
CCOC(=O)c1ccc(NC2OC(=O)c3ccccc32)cc1 (centres undefined)	i	>57
O=C(C1CCCO1)N1CCN(Cc2nc3ccccc3c(=O)[nH]2)CC1 (centres undefined)	i	>57
N#Cc1c(NC(=O)CN2CCN(C(=O)c3ccco3)CC2)sc2c1CCCCC2	i	>57
CCOC(=O)CSc1nc2c(sc(=S)n2Cc2ccco2)c(=O)n1-c1ccc(F)cc1	i	>57
CCC(Sc1nc2n[nH]c(C)c2c(=N)n1-c1ccc(C)c(Cl)c1)C(=O)N1CCOCC1 (centres undefined)	i	>57
COc1ccc(Cn2nnnc2CN(Cc2cc3cc(C)ccc3[nH]c2=O)C2CCCC2)cc1	i	>57
C=CCn1c(=N)n(CC(O)COc2ccc(OC)cc2)c2ccccc21 (centres undefined)	i	·
(cont.)
SMILES	TsaE inh	Bst PK mod
Cc1noc(C)c1-c1nccc(N(C)C)n1	i	·
CCC(C)Sc1nnc(Cc2cc(=O)[nH]c(=O)[nH]2)n1-c1ccc(F)cc1 (centres undefined)	i	·
CC(C)Cn1c(N)c(C(=O)COC(=O)c2cc(-c3ccco3)nc3ccccc23)c(=O)n(C)c1=O	i	>57
CCC(C)(C)C(=O)O[C@@H]1C[C@H](C)C=C2C=C[C@H](C)[C@@H](CC[C@H]3C[C@@H](O)CC(=O)O3)[C@H]21	i	·
CCC(=C(CC)c1ccc(O)cc1)c1ccc(O)cc1	i	·
CCOCCCn1c(SCC(=O)NC(C)(C)C)nc2ccccc2c1=O	i	>57
Cc1ccc2cc(CN(CC3CCCO3)S(=O)(=O)c3ccc4c(c3)OCCO4)c(=O)[nH]c2c1C (centres undefined)	i	>57
CC(=O)N1CCC2(CC1)CCN(c1ccc(-c3ccccc3)cc1)CC2	i	·
CCOC(=O)c1cc2c(ccn2C)n1CC(=O)N1CCC(Cc2ccccc2)CC1	i	>57
Cc1cc(C)n(-c2ccc(C(=O)Nc3nnc(C4CC4)s3)cc2)n1	i	>57
Cc1nc2cnc(N3CCN(C)CC3)nc2n(CCc2ccccc2)c1=O	i	·
CCCN(CCC)CCCNS(=O)(=O)c1ccc2c(c1)oc(=O)n2C	i	>57
CN[C@]1(C)[C@@H]2CC[C@@H](C2)C1(C)C	i	·
O=S(=O)(NCc1cccnc1)c1cccs1	i	>57
Cc1c(C#N)c(N=CN(C)C)c(C(=O)c2ccccc2)n1-c1ccccc1	i	·
COc1ccc(C(=O)N2CCC[C@@]3(CCN(Cc4ccc(C#N)cc4)C3)C2)cc1	i	·
CCOC(=O)N1CCC(Nc2c(NCCCOC)c(=O)c2=O)CC1	i	>57
O=C(NCc1ccc(N2CCCC2=O)cc1)NC1CCCCC1	i	>57
C=CCOc1nc2c(c(=O)n(C)c(=O)n2C)n1Cc1c(Cl)cccc1Cl	·	>25.6
COc1ccccc1-c1cc(C(=O)NCCCn2ccnc2)no1	i	>57
COCc1[nH]nc2c1C(c1ccc(OC)cc1)C(C#N)=C(N)O2 (centres undefined)	·	>25.6
C=CCn1c(SCc2nc(N)nc(N(C)C)n2)nnc1-c1cccnc1	i	>57
CCCOc1ccc2ccccc2c1/C=N/n1c(C)nnc1-n1nc(C)cc1C	i	·
COc1cccc(N(C(=O)c2cccs2)c2nc3ccccc3s2)c1	i	>57
Nc1nc(N2CCCCC2)nc(N(c2ccccc2)c2ccccc2)n1	i	·

One compound at a time, as listed above. Order of values: TsaE inh | Bst PK mod
Cc1nc2c(cnn2-c2ccc(Cl)cc2)c(=O)n1-c1ccc2c(c1)OCCO2 is entered as i | >57
COCc1[nH]nc2c1C(c1ccc(OC)cc1)C(C#N)=C(N)O2 (centres undefined) is entered as · | >25.6
COc1ccc(CCNC(=O)c2ccc(=O)[nH]n2)cc1OC is entered as · | >25.6
S=C(Nc1ccccc1)Nc1nccs1 is entered as i | ·

Next section.
SMILES	TsaE inh	Bst PK mod
Cc1cc(=O)[nH]c(N2CCN(C(c3ccccc3)c3ccccc3)CC2)n1	i	>57
O=C(Nc1ccc2c(c1)OCCO2)C1CCC1	i	>57
O=C(CSc1nnc(-c2ccco2)o1)NC1CC2CCC1C2 (centres undefined)	i	>57
CC(C)COC(=O)OCN1C(=O)CN(CCN2CC(=O)N(COC(=O)OCC(C)C)C(=O)C2)CC1=O	i	·
CCc1cccc2c(C#N)cn(CCOc3ccccc3OC)c12	i	>57
COC(=O)c1ccc(C(=O)OC)c(NC(=O)c2ocnc2C)c1	i	>57
COc1ccccc1NC1=NC2(CCCC2)N=C(N)N1	i	·
Clc1ccc(N2CCN(c3ncnc4c3oc3ccccc34)CC2)cc1	i	>57
N#Cc1nc(-c2ccco2)oc1N1CCN(c2cccc(Cl)c2)CC1	i	>57
CC(C)(C)C1=Nn2c(nnc2-c2ccco2)SC1	·	>25.6
CC/C(=C\C(=O)c1cccnc1)Nc1ccc(C)c(C)c1	i	>57
Cc1cnc(C(=O)Nc2ccccc2-c2ccc(C)o2)cn1	i	>57
CCCc1cc(C(=O)NCc2cccs2)no1	i	·
Cn1c(SCC(=O)N2CCOCC2)nnc1-c1cccc(NC(=O)c2ccccc2F)c1	·	>25.6
O=C(CC1COc2ccccc2O1)Nc1ccccn1 (centres undefined)	i	>57
O=C(O)[C@@H]1CCCN1Cc1cc2ccccc2c2ccccc12	i	·
CCCOc1ccc(N)cc1N	i	>57
CCOC(=O)CNC(=O)CSc1nc(NCc2ccccc2)nc(N(C)C)n1	i	>57
Cc1nnc(NC(=O)Cc2ccc(OCc3c(C)noc3C)cc2)s1	i	>57
CCOC(=O)C1=C(O)C(=O)N(Cc2ccccc2)C1	i	·
CC1Cn2c(COc3ccccc3)nnc2S1 (centres undefined)	i	·
CC(=O)NC(CC(C)C)C(=O)NC(Cc1ccccc1)C(N)=O (centres undefined)	i	>57
O=C(NCc1cn2ccccc2n1)c1ccccc1	i	>57
C[C@H](CCC(=O)O)[C@H]1CC[C@@H]2[C@H]3CC[C@H]4C[C@@H](O)CC[C@@]4(C)[C@H]3CC[C@]21C	i	·
Cc1cc(C)n(-c2ccc(C(=O)Nc3ccc(S(=O)(=O)NCc4ccco4)cc3)cc2)n1	i	>57
Cc1cccc(OCCCC(=O)Nc2ccc3c(c2)OCO3)c1	i	·
CC(=O)NC(CCS(C)(=O)=O)C(=O)Nc1cccc(C(C)=O)c1 (centres undefined)	i	>57

Another view of part of the listing above.
Values run as follows: TsaE inh, Bst PK mod
- O=C(CSc1nnc(-c2ccco2)o1)NC1CC2CCC1C2 (centres undefined)
 : i, >57
- CC(=O)NC(CC(C)C)C(=O)NC(Cc1ccccc1)C(N)=O (centres undefined)
 : i, >57
- CCOCCCNC(=O)C(C)NS(=O)(=O)c1ccc(C)cc1 (centres undefined)
 : i, >57

Assay outcomes as filed in PubChem.

An excerpt; the hit share may differ from the screen's.
